Cruzain Triton = cruzain (T. cruzi) inhibition with detergent | Potency, µM, for inactives: max response, negative = inhibition, most hits filed as inhibitors | actives 0.43% (n = 200,000) | purified cruzain, Z-FR-AMC fluorescence, 0.01% Triton | P25779; active means well fitted curve in the direction sought with a large enough effect; inconclusive means small, poorly fitted or top-dose-only effect, or another doubt; inactive means no such curve, though single readings can be large; an effect the other way counts as inactive or inconclusive;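 further: plate controls were neutral wells for no effect and buffer without enzyme for full effect; nearly all actives have a fitted effect of over 40% in size; top concentration of the series not given in the record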
Target sequence (P25779 123-467 limits assumed): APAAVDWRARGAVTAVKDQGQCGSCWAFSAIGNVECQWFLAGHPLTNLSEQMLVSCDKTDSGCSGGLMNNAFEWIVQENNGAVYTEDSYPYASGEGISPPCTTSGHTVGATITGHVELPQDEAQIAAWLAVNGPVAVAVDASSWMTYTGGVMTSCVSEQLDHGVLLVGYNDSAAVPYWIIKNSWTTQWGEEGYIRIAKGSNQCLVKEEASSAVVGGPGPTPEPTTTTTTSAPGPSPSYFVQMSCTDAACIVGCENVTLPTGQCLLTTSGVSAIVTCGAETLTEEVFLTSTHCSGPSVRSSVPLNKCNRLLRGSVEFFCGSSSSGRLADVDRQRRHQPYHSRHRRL
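Sodium acetate buffer (100 mM, pH 5.5) containing 5 mM DTT and 0.01% Triton X-100 hosted 1.5 nM cruzain and test compound for 15 min at room temperature. Cleavage of 2 uM Z-FR-AMC was then tracked by fluorescence.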
SARS PLpro yeast = blocks SARS-CoV papain-like protease in a yeast assay | S. cerevisiae expressing SARS-CoV PLpro, growth rescue; control for the full effect not named in the record | Potency, µM (doses to about 32.9 µM), for the others: at the highest dose activity, positive = growth rescue | actives 0.19% (n = 330,000) | AID 485353; further: 0% is about no effect; nearly all actives have a fitted effect of over 55% in size; growth read by luminescence after 48 h
NS1 inh = influenza NS1 inhibition. actives 0.4% (n = 270,000). AID 2326. Potency, µM (series often up to 46.1 µM), for the others: at the top dose activity, positive = more growth. S. cerevisiae slowed by influenza A NS1, growth recovery by OD600; further: actives are rising curves; nearly all actives have a fitted effect of over 50% in size
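OD600 was taken as the measure of yeast growth restored by compound in an NS1-expressing S. cerevisiae strain. Cells had been washed out of glucose medium and diluted 1:100 into galactose -URA medium, pH 6.0.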
Cruzain noTriton = cruzain (T. cruzi) inhibition without detergent; P25779; purified cruzain, Z-FR-AMC fluorescence, no detergent; Potency, µM, without a hit: max response, negative = inhibition, actives largely listed as inhibitors; actives 2.3% (n = 200,000); active means well fitted curve in the direction sought with a large enough effect; inconclusive means small, poorly fitted or top-dose-only effect, or another doubt; inactive means no such curve, though single readings can be large; an effect the other way counts as inactive or inconclusive;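 further: plate controls were enzyme without inhibitor for no effect and buffer without enzyme for full effect; nearly all actives have a fitted effect of over 40% in size; top concentration of the series not given in the record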
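Detergent-free condition (0.00005% Triton X-100) in acetate buffer pH 5.5 with DTT. 1.5 nM enzyme and compound were pre-mixed 15 min, then 2 uM Z-FR-AMC substrate added; reaction progress from fluorescence change between first and third reads (60 s).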
2A StopGo = FMDV 2A StopGo reporter, luciferase signal; human cells with a luciferase reporter of 2A StopGo recoding; control for the full effect not named in the record; Potency, µM (highest dose often 57.9 µM), for inactives: at the top dose signal change, negative = less light; actives 1.2% (n = 410,000); active = well fitted falling curve with a large enough effect; inconclusive = small, poorly fitted or top-dose-only effect; inactive = no such curve, though single readings can be large or run the other way; tested in HEK293T cells; further: on the % scale 0 is the no-effect control and ±100 the full control effect; nearly all actives have a fitted effect of over 45% in size; luciferase light after 4 h
Lassa entry inh = Lassa virus entry inhibition; Lassa virus pseudotype entry inhibition, cell reporter; control for the full effect not named in the record; Potency, µM (top dose mostly 37.9 µM), for the others: top-dose activity change, negative = inhibition, most hits filed as inhibitors; actives 1.2% (n = 300,000); AID 540256; active means well fitted inhibition curve with a large enough effect; inconclusive means small, poorly fitted or top-dose-only effect, or effect the other way; inactive means flat fitted curve, though single readings scatter; tested in HEK293 cells; further: on the % scale 0 is the no-effect control and ±100 the full control effect; nearly all actives have a fitted effect of over 50% in size; luciferase read-out
RE007 growth inh = less growth of the S. pombe RE007 Vpr strain; actives 0.21% (n = 360,000); Potency, µM (highest dose often 92.2 µM), inactives show top-dose activity change, negative = less growth; S. pombe RE007 Vpr strain, BacTiter-Glo ATP luminescence, 24 h; control for the full effect not named in the record; active = well fitted falling curve with a large enough effect; inconclusive = small, poorly fitted or top-dose-only effect; inactive = no such curve, though single readings can be large or run the other way;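 further: on the % scale 0 is the no-effect control and ±100 the full control effect; nearly all actives have a fitted effect of over 50% in size; the assay follows cell death caused by Vpr and the record does not say whether a fall means rescue or toxicity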
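Fission yeast strain RE007, carrying one chromosomally integrated HIV-1 vpr copy, was seeded at OD 0.01 in PMG+AL medium with 23 nL pinned compound. After 24 h at 30 °C and 99% humidity, viability was read by BacTiter-Glo luminescence.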
MARV entry inh = Marburg virus entry inhibition; Potency, µM (doses to about 37.8 µM), for the others: at the top dose activity change, negative = inhibition, most hits filed as inhibitors; Marburg virus pseudotyped entry inhibition, cell reporter; control for the full effect not named in the record; about a third of the inactives were read at about 46 µM; actives 1.8% (n = 300,000); active = well fitted inhibition curve with a large enough effect; inconclusive = small, poorly fitted or top-dose-only effect, or effect the other way; inactive = flat fitted curve, though single readings scatter; tested in HEK293 cells; about a fifth of its hits are not listed in these tables; further: on the % scale 0 is the no-effect control and ±100 the full control effect; luciferase read-out
* hit, by the source's call; ? = inconclusive; · = not tested or not shown; & = joins results of further samples; [ ] = dose if it differs, or a comment. Unless noted, the call rests on the fitted dose curve; in most records, active means well fitted rising curve with a large enough effect; inconclusive means small, poorly fitted or top-dose-only effect; inactive means no such curve, though single readings can be large or run the other way. Potency means the concentration at half of the fitted maximal effect.

| Structure | Cruzain Triton | SARS PLpro yeast | NS1 inh | Cruzain noTriton | 2A StopGo | Lassa entry inh | RE007 growth inh | MARV entry inh |
| --- | --- | --- | --- | --- | --- | --- | --- | --- |
| Nc1nonc1-n1nnc(C(=O)N/N=C/c2c[nH]c3ccccc23)c1-c1ccccc1 | · | 2% | 0% | · | -28% | · | 6% | · |
| C=CCN1C(=O)/C(=C/c2ccc(OCC(=O)O)cc2)S/C1=N/c1nccs1 | -17% | 11% | 1% | ? | -15% | 12% | 7% | -11% |
| Cc1csc(=O)n1CC(=O)OCC(=O)Nc1cc(Cl)ccc1[N+](=O)[O-] | · | -2% | -10% | · | -26% | 3% | -13% | 38% |
| CCOc1ccccc1C(=O)Nc1nccs1 | 2.5% | 2% | -28% | -3% | -19% | 21% | -26% | ? |
| CC(=Nc1ccccc1C)C1=C(O)CSC1=O | 1.7% | 9% | -3% | -16% | · | 13% | -21% | 23% |
| CCOc1cc(C(=O)O)cc(Cl)c1OC | 1.0% | 10% | 3% | 8% | 0% | 11% | -1% | 1% |
| CS/C(=C\C(=O)c1ccco1)Nc1ccccc1Cl | · | -6% | -84% | · | 29% | -24% | -6% | -21%[46.1 µM] |
| CN1CCN(Cc2cn[nH]c2-c2ccc(F)cc2F)[C@@H](c2ccccc2)C1 | · | 1% | 2% | · | -16% | ? | 1% | ? |
| COc1cc(-c2nnc(CSc3nnc(Nc4ccc(C(C)C)cc4)s3)o2)cc(OC)c1OC | -5.6% | 3% | 23% | ? | 13% | ? | 2% | ? |
| CC(C)CCNC(=O)c1cccc(C(=O)NCCC(C)C)c1 | 1.7% | -4% | -1% | 6% | -16% | -10% | 2% | -10% |
| CC(C)C(C)NC(=O)CN1C(=O)NC2(CCc3ccccc3C2)C1=O (stereo not given) | · | -3% | · | · | -17% | 19%[46.1 µM] | 20% | -3%[46.1 µM] |
| Cc1cc(C)c(S(=O)(=O)NCc2cccnc2)cc1C | · | 0% | 6% | · | 71%[activator] | · | -19% | · |
| CCn1c(=O)cc(OCC(=O)N2CCN(c3ccc(F)cc3)CC2)c2ccccc21 | -1.0% | 8% | · | -12% | -11%&-22% | -7% | -13% | -15%&6%[46.1 µM] |
| Fc1ccccc1-n1ncc2c1ncn1nc(COc3ccc(Cl)cc3)nc21 | -1.1% | · | · | -2% | -15% | 16%[46.1 µM] | · | 23%[46.1 µM] |
| COc1cccc(NC(=O)CSc2nnc3ccc(-c4ccncc4)nn23)c1 | · | 0% | · | · | -7% | 10% | 8% | -1% |
| COC(=O)c1ccc(OC(=O)C2CC(=O)N(c3ccc(C)cc3C)C2)cc1 (stereo not given) | 4.8% | -6% | -85% | 2% | 61%[activator] | 3% | 9% | 7% |
| CC(=O)c1ccc2c3c(cc(C)c2c1)CCCC3 | · | · | · | · | 24% | 6%[46.1 µM] | -11% | -3%[46.1 µM] |
| C/C(=N\NC(=O)Cn1nc(C)c([N+](=O)[O-])c1C)c1ccc(Cl)s1 | · | 0% | 5% | · | -6% | -7%[46.1 µM] | -3% | 12%[46.1 µM] |
| Cc1ccc(C(=O)N2CCCC(C(=O)c3ccc(Oc4ccccc4)cc3)C2)cn1 (stereo not given) | · | -2% | -33% | · | ? | ? | 3% | ? |
| CCOC(=O)c1c(S(=O)(=O)N2CCC(C(=O)Nc3ccc(C)cn3)CC2)c(C)n(C)c1C | 3.5% | · | · | -14% | -7% | ? | · | · |
| CCOc1ccc(/C=N/NC(=O)c2cc3c(OC)cc(OC)cc3[nH]2)cc1OC | · | 0% | 22% | · | -21% | · | 3% | · |
| O=C(Nc1cccc(F)c1)N1CCC(n2c(=O)[nH]c3ccccc32)CC1 | · | -3% | -2% | · | ? | -7% | 6% | -3%[46.1 µM] |
| COc1cc(/C=N/NS(=O)(=O)c2ccccc2)c(OC)c(OC)c1 | · | 1% | 7% | · | 5% | · | 0% | · |
| COC(=O)c1cc2occc2n1CC(=O)Nc1cccc(SC)c1 | 0.0% | · | · | ? | -7% | · | · | -18%[46.1 µM] |
| CCN(c1ccccc1)S(=O)(=O)c1ccc(Cl)c(NC(=O)COC(=O)c2ccc[n+]([O-])c2)c1 | · | -3% | -12% | · | 2% | -6% | 4% | 7%[46.1 µM] |

Reformatted field by field: 4 of the compounds above
CC(C)CCNC(=O)c1cccc(C(=O)NCCC(C)C)c1
- Cruzain Triton: 1.7%
- SARS PLpro yeast: -4%
- NS1 inh: -1%
- Cruzain noTriton: 6%
- 2A StopGo: -16%
- Lassa entry inh: -10%
- RE007 growth inh: 2%
- MARV entry inh: -10%
COC(=O)c1ccc(OC(=O)C2CC(=O)N(c3ccc(C)cc3C)C2)cc1 (stereo not given)
- Cruzain Triton: 4.8%
- SARS PLpro yeast: -6%
- NS1 inh: -85%
- Cruzain noTriton: 2%
- 2A StopGo: 61%[activator]
- Lassa entry inh: 3%
- RE007 growth inh: 9%
- MARV entry inh: 7%
CC(=Nc1ccccc1C)C1=C(O)CSC1=O
- Cruzain Triton: 1.7%
- SARS PLpro yeast: 9%
- NS1 inh: -3%
- Cruzain noTriton: -16%
- 2A StopGo: ·
- Lassa entry inh: 13%
- RE007 growth inh: -21%
- MARV entry inh: 23%
CN1CCN(Cc2cn[nH]c2-c2ccc(F)cc2F)[C@@H](c2ccccc2)C1
- Cruzain Triton: ·
- SARS PLpro yeast: 1%
- NS1 inh: 2%
- Cruzain noTriton: ·
- 2A StopGo: -16%
- Lassa entry inh: ?
- RE007 growth inh: 1%
- MARV entry inh: ?

Additional structures
| Structure | Cruzain Triton | SARS PLpro yeast | NS1 inh | Cruzain noTriton | 2A StopGo | Lassa entry inh | RE007 growth inh | MARV entry inh |
| --- | --- | --- | --- | --- | --- | --- | --- | --- |
| CCN(CC)C(=O)CN(c1cccc(OC)c1)S(=O)(=O)c1ccc(C)cc1 | 1.4% | -5% | 0% | 10% | 41%[activator] | -24% | 11% | 5% |
| O=C(COc1ccc2c(c1)OCO2)Nc1ccccc1C(F)(F)F | · | -1% | -8% | · | 31%[activator] | 13%[46.1 µM] | -12% | 0%[46.1 µM] |
| CCOC(=O)c1cccnc1SC(CC)C(=O)N1CCOCC1 (stereo not given) | 1.2% | 0% | 5% | 6% | 16% | 17% | 7% | -2% |
| CCCCCC(=O)c1c(C)[nH]c(C(=O)OCC)c1C | -8.1% | -38% | -21% | 29% | 15% | -14% | -16% | -3% |
| CNC(=S)N1CC2CC(C1)c1cccc(=O)n1C2 (stereo not given) | · | -4% | 0% | · | 2% | 0% | -7% | -2% |
| CN1CCN(C(CNS(=O)(=O)c2ccc(Cl)cc2)c2cccnc2)CC1 (stereo not given) | -0.3% | 1% | 2% | 3% | 0% | 2% | 4% | 0% |
| Cc1ccc(-n2nnc3c(=O)n(CC(N)=O)cnc32)cc1 | · | 2% | -2% | · | 6% | 18%[46.1 µM] | 7% | 2%[46.1 µM] |
| Cc1cccc(N2CC(C(=O)Nc3ccc(S(=O)(=O)N4CCCCC4)cc3)CC2=O)c1C (stereo not given) | · | 6% | 13% | · | -30% | 7% | 8% | -26%[46.1 µM] |
| CC(NC(=O)CN1CCC(C(N)=O)CC1)c1ccccc1 (stereo not given) | 3.0% | 2% | -2% | -7% | -2% | 12% | 13% | -19% |

Record cards (already shown). Values in the order: Cruzain Triton	SARS PLpro yeast	NS1 inh	Cruzain noTriton	2A StopGo	Lassa entry inh	RE007 growth inh	MARV entry inh
Profile of CCN(CC)C(=O)CN(c1cccc(OC)c1)S(=O)(=O)c1ccc(C)cc1 = 1.4%	-5%	0%	10%	41%[activator]	-24%	11%	5%
Profile of CCCCCC(=O)c1c(C)[nH]c(C(=O)OCC)c1C = -8.1%	-38%	-21%	29%	15%	-14%	-16%	-3%
